KCNQ2 inh – KCNQ2 potassium channel inhibitors, primary screen, cell-based, CHO-K1, FluxOR thallium flux, B-score (AID 2156) | Potassium voltage-gated channel subfamily KQT member 2 (Rattus norvegicus), O88943 | B-score at 10 µM | 20 min; active compounds read low; only compounds with negative scores are shown here; some inactives read as strong as hits | 310,000 tested, 1.1% active;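 active = fluorescence ratio B-score at most minus 3 library SDs, with starting brightness B-score within 2 library SDs, cut at about -5.5 in these data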
Target sequence (O88943 whole entry, looked up): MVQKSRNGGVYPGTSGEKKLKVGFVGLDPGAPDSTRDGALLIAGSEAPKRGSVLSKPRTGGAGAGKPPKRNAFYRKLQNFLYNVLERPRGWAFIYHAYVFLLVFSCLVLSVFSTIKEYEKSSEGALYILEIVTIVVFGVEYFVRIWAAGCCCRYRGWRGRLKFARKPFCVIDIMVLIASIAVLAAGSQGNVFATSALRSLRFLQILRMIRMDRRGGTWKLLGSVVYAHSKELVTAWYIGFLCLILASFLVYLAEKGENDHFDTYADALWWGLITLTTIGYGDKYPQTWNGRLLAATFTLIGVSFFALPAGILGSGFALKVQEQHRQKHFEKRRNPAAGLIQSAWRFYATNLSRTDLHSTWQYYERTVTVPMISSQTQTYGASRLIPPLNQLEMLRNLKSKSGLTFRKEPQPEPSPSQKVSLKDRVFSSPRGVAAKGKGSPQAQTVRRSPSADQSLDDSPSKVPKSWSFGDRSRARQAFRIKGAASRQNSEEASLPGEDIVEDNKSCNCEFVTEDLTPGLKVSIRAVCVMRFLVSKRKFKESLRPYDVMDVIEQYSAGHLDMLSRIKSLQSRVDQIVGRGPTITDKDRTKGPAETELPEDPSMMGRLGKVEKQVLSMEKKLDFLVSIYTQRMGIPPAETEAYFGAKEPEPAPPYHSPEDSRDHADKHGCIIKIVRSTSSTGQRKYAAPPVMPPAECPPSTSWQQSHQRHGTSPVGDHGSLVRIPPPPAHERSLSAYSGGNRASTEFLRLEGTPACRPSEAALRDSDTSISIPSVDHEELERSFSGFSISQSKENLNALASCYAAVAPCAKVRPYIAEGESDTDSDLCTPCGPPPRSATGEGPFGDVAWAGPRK
KCNQ2 inh baseline – also measured in KCNQ2 inh; calls as there; B-score; measured here: initial fluorescence intensity artifact check;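 brightness before thallium and not channel activity; 0 = typical well and far values either way flag optical interference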
The depositor's hits bear a star; i = inactive. These rows are one share of the data; the hit share may differ from the screen's.

SMILES	KCNQ2 inh	KCNQ2 inh baseline
CC(=O)c1ccc(OCC(=O)NC2CCCN(Cc3ccccc3F)C2)cc1 (stereo not given)	i	0.11
CCN(CC)C(=O)CN(c1ccc(C)cc1)S(=O)(=O)c1ccc(SC)cc1	i	0.8
Cc1ccccc1Nc1cc2ccccc2c(=O)[nH]1	i	0.35
CCC(=O)c1c(NC(C)C)cc(C)oc1=O	i	1.1
Cc1ccc2nc(C)c(C(=O)N/N=C/c3ccc(C(=O)O)cc3)cc2c1	i	-0.19
COc1ccc(/C=C2\SC(=O)N(CCC(=O)NCCCn3ccnc3)C2=O)cc1	i	1.6
CCC(C)NC(=O)CCc1c(C)nc2nc(-c3cc(OC)cc(OC)c3)nn2c1C (stereo not given)	i	0.35
Cc1cnc([N+](=O)[O-])n1CCOC(=O)NC(=O)c1ccc(C(F)(F)F)cc1	i	-1.2
O=C(NS(=O)(=O)Oc1ccc(F)cc1F)OC[C@@H]1CCCN2CCCCC12 (stereo not given in full)	i	1.1
O=C1CCC(/C=C/c2ccccc2)=NN1Cc1ccc(Cl)c(Cl)c1	i	-0.84
COc1cc(OC)c(C2=NOC(C(=O)NCCc3ccccc3)C2)cc1Cl (stereo not given)	i	-0.07
COc1cccc(NC(=S)N2CCCC2)c1	i	2.2
CCn1nc(NC(=O)c2ccco2)c2cc3cc(C)ccc3nc21	i	0.09
COc1ccc(S(=O)(=O)NCc2ccccn2)cc1OC	i	-0.81
O=C(Nc1ccn(Cc2c(F)c(F)cc(F)c2F)n1)c1cccc(Cn2cc([N+](=O)[O-])cn2)c1	i	2.4
COc1ccc(CNC(=O)C(c2ccncc2)N(C(=O)Cc2cccs2)c2cccc(C)c2)cc1 (stereo not given)	i	-0.12
CCN(CC)c1ncnc2scc(C3COc4ccccc4O3)c12 (stereo not given)	i	2.7
CN(C)c1ccc(/C=C/c2cc[n+]([O-])cc2)cc1	i	24
COc1cc(/C=N/NC(=O)c2c(-c3ccccc3)noc2C)cc(OC)c1OC	i	0.21
CCOc1cc2c(cc1OCC)C(C(=O)O)C(c1cc(OC)c(OC)c(OC)c1)N(C)C2=O (stereo not given)	i	2.4
Cc1cc(C)n(-c2ncnc3sc(C)c(C)c23)n1	i	-1.7
COc1ccccc1N(C(=O)CNC(=O)c1ccco1)C(C(=O)NC1CCCC1)c1ccncc1 (stereo not given)	i	-0.31
Cc1ccc(-c2nc3c(=O)n(C)c4ccccc4c3o2)cc1	i	-0.01
O=C(/C(=C(/[O-])c1ccccc1)[n+]1ccccc1)c1ccc([N+](=O)[O-])cc1	i	1.3
CCNS(=O)(=O)c1cc(Br)ccc1OC	i	0.4
CC(CCc1ccccc1)NC(=O)CNc1cccc([N+](=O)[O-])c1 (stereo not given)	i	-1.3
C/C=N\NC(=O)CNC(=O)CNC(=O)c1ccccc1	i	1.6
O=C1NC(=S)S/C1=C1\Sc2ccccc2N1CCCS(=O)(=O)O	i	1.1
CCn1nnnc1SCC(=O)N1CCOCC1	i	2.1
O=C(CCc1ccccc1)Nc1nc2ccc(S(=O)(=O)N3CCOCC3)cc2s1	i	-0.03
COc1ccccc1Nc1nc(-c2sc(NC(=O)C(C)(C)C)nc2C)cs1	i	-1.1
CCNC(=O)Cc1ccc(Br)cc1	i	2.4
COc1cccc(CNC(=O)CCCn2nc(C)c3c(C)n(-c4ccccc4)nc3c2=O)c1	i	0.03
Cc1cccc(NC(=S)NC(=O)CCc2ccccc2)c1	i	-1
N=c1c2c(-c3ccccc3)c(-c3ccccc3)n(Cc3ccco3)c2ncn1CCN1CCOCC1	i	0.1
COc1ccnc(Oc2ccc(F)cc2)c1C(=O)N/C=N/OCc1cccc(F)c1	i	-0.14
CCn1c(COc2ccc(Cl)cc2)nnc1SCC(=O)Nc1ccc2c(c1)OCCO2	i	2.1
COc1ccccc1/C=C/C(=O)NNC(=O)c1cc(C)oc1C	i	0.67
Cc1ccc(-c2n[nH]c(=S)n2/N=C/c2c(C)nn(-c3ccccc3)c2C)cc1	i	-0.4
O=CN1CCN(C(=O)c2ccc3c(c2)OCO3)CC1	i	0.13
N#Cc1ccc2ccn(CC(=O)N3CCCc4ccccc43)c2c1	i	-0.95
Cc1ccc(CNC(=O)CSCc2ccccc2)cc1	i	-1.3
O=C1CC(N2CCSCC2)C(=O)N1c1ccc(F)cc1 (stereo not given)	i	1.2
O=[N+]([O-])c1ccc(Oc2cccc(F)c2)c2ccncc12	i	0.21
COc1cc(/C=C(\C#N)C(=O)Nc2cccc(C(=O)O)c2)ccc1OCc1ccc(C)cc1	i	-1.4
COc1ccc(OC)c(NC(=O)Cc2coc3cc(C)cc(C)c23)c1	i	2.5
COCc1cc(C)nc2sc(C(=O)Nc3ccccc3C)c(N)c12	i	2.5
O=C(COc1ncnc2ccccc12)Nc1ccc(S(=O)(=O)N2CCOCC2)cc1	i	0.92
CCOC(=O)C1CCN(C(=O)CN(C)S(=O)(=O)c2cc(C)ccc2OC)CC1	i	1.1
Cn1nc(C(F)(F)F)cc1-c1ccc(S(N)(=O)=O)s1	i	-1.1
Cc1cc2c(cc(C(=O)N3CCC(C(=O)NC4CCCC4)CC3)n2Cc2c(F)cccc2Cl)o1	i	-0.02
COc1ccc(C)cc1Nc1nc(-c2c[nH]c3ccccc23)cs1	i	-1.1
Cc1occc1C(=O)NC1CCCN(Cc2ccc(Cl)cc2)C1 (stereo not given)	i	1.2
CCOC(=O)c1c(/N=C/c2cc(OC)cc([N+](=O)[O-])c2O)sc(C)c1C	i	1.9
O=S(=O)(c1cccc(-c2nc3n(n2)Cc2ccccc2-3)c1)N1CCCCC1	i	3.1
Cc1ccc(CN2C(=O)CCC2C(=O)NCCc2ccccc2)cc1 (stereo not given)	i	0.35
O=C(CSc1nnc(C2COc3ccccc3O2)o1)Nc1ccc(F)cc1Cl (stereo not given)	i	-0.19
CCOc1ccc(CN2CCCC(CO)(Cc3ccc(F)cc3)C2)cc1 (stereo not given)	i	-0.82
CC(=O)Oc1ccc(-c2cc3c(OC(C)=O)cc(OC(C)=O)cc3oc2=O)cc1	i	2.5
Cc1nn(-c2ccccc2)c(C)c1/C=N/NC(=O)CSc1nnc(SCc2ccc(Cl)cc2)s1	i	-0.05
Further entries.
SMILES	KCNQ2 inh	KCNQ2 inh baseline
COc1cc(NC(=O)CN(c2cc(C)cc(C)c2)S(=O)(=O)c2c(C)[nH]c(=O)[nH]c2=O)cc(OC)c1	i	0.21
O=C(c1ccco1)[C@@H]1[C@@H]2C(=O)N(c3ccc(F)cc3)C(=O)[C@@H]2C2c3ccccc3C=CN21 (stereo not given in full)	i	2.6
CC(C)CN(C(=O)c1ccc([N+](=O)[O-])s1)c1c(N)n(Cc2ccccc2)c(=O)[nH]c1=O	i	0.86
CCCn1c(SCC(=O)OCC)nc(C(F)(F)F)cc1=O	i	0.35
O=C(CN(c1ccccc1Cl)S(=O)(=O)c1ccccc1)NCc1ccccc1	i	0.79
CCN(CC)CCNC(=O)Cn1cnc2sc(C)c(S(=O)(=O)N3CCC(C)CC3)c2c1=O	i	0.12
CCOC(=O)CCNC(=O)N1CCCC(N2CCN(c3ccc(OC)cc3)CC2)C1 (stereo not given)	i	2
COc1ccc(NC(=O)c2ccco2)cc1NC(=O)c1ccccc1F	i	-0.27
CCOc1ccc2c(C)c(Cl)c(=O)oc2c1	i	0.09
COc1ccc(/C=N/NC(=O)CCCC(=O)NC2CCCCC2)cc1	i	-0.25
COc1ccc(N2CSC3=C(C#N)C(c4cc(OC)c(OC)cc4OC)CC(=O)N3C2)c(OC)c1 (stereo not given)	i	-1
CCOc1ccc(Nc2nc3cc(S(=O)(=O)CC)ccc3o2)cc1	i	0.22
CN(C)S(=O)(=O)N(CC(=O)NCCSCc1ccc(Cl)cc1)c1ccccc1	i	0.39
CCC(CC)C(=O)Nc1ccc(Sc2ccc([N+](=O)[O-])cc2)cc1	i	-1.1
COc1cc2c(cc1OC)/C(=C/c1ccc(Cl)cc1)C(=O)OC2	i	0.76
COc1ccc(/C=C/C(=O)OCc2csc(-c3ccccc3)n2)cc1OC	i	0.27
CC1(C)Cc2c(sc(/N=C/N3CCCCC3)c2C#N)C(C)(C)N1	i	1.5
COc1ccc(-c2csc(NC(=O)C3CCCO3)n2)cc1 (stereo not given)	i	1.4
COc1ccc(CNc2cc([N+](=O)[O-])ccc2OC)cc1	i	0.36
O=C(OCC(=O)c1ccc(Cl)s1)c1ccc2ccccc2n1	i	0.22
O=C(CS(=O)(=O)c1c[nH]c2ccccc12)N1CCCCCC1	i	0.28
CCOC(=O)C1=C(COC(=O)/C=C/c2ccc(OCC)c(OC)c2)NC(=O)NC1C (stereo not given)	i	0.16
CC(=C/c1ccccc1)/C=N/NC(=O)c1nnn(-c2nonc2N)c1CN1CCC(C)CC1	i	0.81
COc1ccc(NC2=NCCC(=O)N2Cc2cccs2)cc1	i	-0.4
CN(CC(O)COc1c(F)cc(Br)cc1F)C1CCCCC1 (stereo not given)	i	0.49
COc1ccccc1CNC(=O)COC(=O)c1ccc(NC(N)=O)cc1	i	0.11
CCOc1ccc(CN(C(=O)c2oc3ccccc3c2C)C2CCS(=O)(=O)C2)cc1 (stereo not given)	i	-0.87
Cc1ccc(C)c(N2CCN(c3ccc4cc(S(=O)(=O)N5CCCCC5)ccc4n3)CC2)c1	i	-0.24
O=C1CCCCN1CC(=O)N1CCCC(Nc2ccc(F)cc2)C1 (stereo not given)	i	0.7
Cc1cc(C)nc(SCC(CSc2nc(C)cc(C)n2)C(=O)O)n1	i	-2.3
CC1CC(C)CN(C(=O)c2cc(-c3ccncc3)nc3ccccc23)C1 (stereo not given)	i	-0.79
COC(=O)CSc1nc2cc(Cl)ccc2c(=O)n1C1CCCC1	i	1.8
COC(=O)c1nc2n(n1)C(c1ccc([N+](=O)[O-])cc1)C(C(=O)Nc1ccc(Cl)cc1)=C(C)N2 (stereo not given)	i	1.3
COC(=O)c1cc2oc(C)cc2n1CC(=O)N1CCCc2ccccc21	i	0.04
Cc1cccc(C)c1OCc1n[nH]c(=S)n1-c1ccccc1	i	0.07
COc1cc(C)ccc1OCCCON1C(=O)CCC1=O	i	1.9
Cc1[nH]c2ccc(C(=O)NC3CCC(C)CC3)cc2c1C (stereo not given)	i	-0.23
Cc1cc(N2CC(C)OC(C)C2)nc2ccccc12 (stereo not given)	i	-1.3
CN(C)c1ccc(NC(=O)Nc2cccc3ccccc23)cc1	i	-1
CCOC(=O)c1ccc(NC(=S)Nc2ccccc2)cc1	i	-0.03
O=C(NCc1nc2ccccc2[nH]1)C1=C[C@@H](c2csc3ccccc23)C[C@@H](OCCCCO)O1	i	-0.51
Cc1c(NC(=O)Nc2ccc(Cl)c(Cl)c2)sc(=S)n1C	i	-2.2
COCCn1c(-c2ccc(OC)cc2)cnc1SCC(=O)Nc1cc(C)on1	i	-0.61
C=CCN1C(=O)C2C(C(=O)NC)C3(C)C=CC2(O3)C1C(=O)NCc1ccc(OC)cc1 (stereo not given)	i	0.41
OCc1nc2ccccc2n1CCCOc1ccccc1	i	-1.3
O=C(c1ccc(CN2CCc3ccccc3C2)cc1)N1CCN(c2ccccc2)CC1	i	-0.1
COc1ccc(-c2cn3nc(SCC(=O)NC4CCCCC4)ccc3n2)cc1	i	-1.2
COc1ccc(-c2noc(COc3ccccc3OC)n2)cc1OC	i	2.9
O=C(N/N=C/c1ccccc1F)c1cccc2ccccc12	i	-1.4
O=C(OCc1ccc(COC(=O)c2ccccn2)cc1)c1ccccn1	i	0.49
CCCCn1c(O)c(N=Nc2ccccn2)c2ccccc21	i	0.01
CCOC(=O)C1=C(Nc2ccccc2)CC(C)(O)C(C(=O)OCC)C1c1ccccc1 (stereo not given)	i	0.27
Cc1ccc([N+](=O)[O-])cc1S(=O)(=O)Nc1ccc(O)c(Sc2ncn[nH]2)c1	i	-0.88
O=C(O)C1CCC(CN(Cc2cccc(Br)c2)C(=S)Nc2ccccc2F)CC1 (stereo not given)	i	3
O=C(/C=C/c1cccs1)c1cc(Br)ccc1OC(=O)N1CCOCC1	-6.8*	-1.4*

Compounds shown so far that have a thiophene ring, fused or not (13):
SMILES	KCNQ2 inh	KCNQ2 inh baseline
COc1ccc(CNC(=O)C(c2ccncc2)N(C(=O)Cc2cccs2)c2cccc(C)c2)cc1 (stereo not given)	i	-0.12
CCN(CC)c1ncnc2scc(C3COc4ccccc4O3)c12 (stereo not given)	i	2.7
Cc1cc(C)n(-c2ncnc3sc(C)c(C)c23)n1	i	-1.7
COCc1cc(C)nc2sc(C(=O)Nc3ccccc3C)c(N)c12	i	2.5
Cn1nc(C(F)(F)F)cc1-c1ccc(S(N)(=O)=O)s1	i	-1.1
CCOC(=O)c1c(/N=C/c2cc(OC)cc([N+](=O)[O-])c2O)sc(C)c1C	i	1.9
CC(C)CN(C(=O)c1ccc([N+](=O)[O-])s1)c1c(N)n(Cc2ccccc2)c(=O)[nH]c1=O	i	0.86
CCN(CC)CCNC(=O)Cn1cnc2sc(C)c(S(=O)(=O)N3CCC(C)CC3)c2c1=O	i	0.12
CC1(C)Cc2c(sc(/N=C/N3CCCCC3)c2C#N)C(C)(C)N1	i	1.5
O=C(OCC(=O)c1ccc(Cl)s1)c1ccc2ccccc2n1	i	0.22
COc1ccc(NC2=NCCC(=O)N2Cc2cccs2)cc1	i	-0.4
O=C(NCc1nc2ccccc2[nH]1)C1=C[C@@H](c2csc3ccccc23)C[C@@H](OCCCCO)O1	i	-0.51
O=C(/C=C/c1cccs1)c1cc(Br)ccc1OC(=O)N1CCOCC1	-6.8*	-1.4*

Source: PubChem BioAssay (Johns Hopkins Ion Channel Center)
